Compound activity (PubChem)
PrP UTR inh: suppresses PrP 5' UTR mRNA reporter expression. cell-based PrP 5' UTR mRNA reporter, plate reader. inhibition, % (test concentration not listed). 0.35% of 340,000 active. AID 488862;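 active means every replicate at 50% or more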;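 further: 0 = median of the neutral control wells; tested in H4 reporter cells; numbers are from one replicate; inactives centre near -14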
Mtb hypoxia inh: Mtb hypoxia fluorescent reporter inhibition; M. tuberculosis hypoxia-regulated fluorescent reporter, fluorescence; fluorescence inhibition, % (no concentration beside the values); 0.1% of 300,000 active;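 active means 35 to 45% if threefold the growth effect, above 45% if 1.5-fold the growth effect; inactive means the rest, general growth blockers included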;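 further: wells of about 50 µL received 100 nL stock; 0% = vehicle wells and 100% = reference inhibitor wells; whole bacteria with a GFP reporter of the hypoxia response; strong numbers were not always called active; many hits fall short of the cut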
Sa RN4220 lethal: S. aureus RN4220 growth inhibition; OD600, 16 h; inhibition, % (concentration not given with the values); 0.33% of 330,000 active;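 active means z-score of -3 or lower and OD600 up to 0.18 on both plates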;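 further: plate controls were untreated cells for no effect and reference antibiotic for full effect; stock transfer was 100 nL into about 80 µL; one replicate is shown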
BJeLR lethal: kills HRASV12-expressing BJeLR cells; 0.17% of 300,000 active; inhibition, % (concentration not given with the values); BJeLR (HRASV12) viability, CellTiter-Glo ATP luminescence, 48 h; reference of the scale not given here;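 active means replicate mean above 50%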;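 further: 50 nL library stock added to about 25 µL; numbers are from one replicate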
Autofluor counter: counter-screen for toxin protease inhibitors: compound fluorescence; compound autofluorescence counterscreen, microsphere flow cytometry; stronger effect = higher value; fluorescence intensity (no concentration beside the values); 3.1% of 360,000 active;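 active means at least 3 SD above the mean of all compounds, about 16000 in these data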;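 further: 100 nL of 1 mM stock went into each well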
ugtP null kill: compounds lethal to S. aureus RN4220 ugtP deletion mutant; OD600 growth, 16 h; some inactives read as strong as hits; growth inhibition, % (concentration not given with the values); 0.54% of 330,000 active; AID 1259309;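 active means z-score under -3 and OD600 up to 0.15 on both plates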;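 further: plate controls were untreated wells for no effect and antibiotic for full effect; wells of about 80 µL received 100 nL stock; the first replicate is given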
Mtb hypoxia inh growth: further read-out of Mtb hypoxia inh, marked with its call; growth inhibition, %; measured here: M. tuberculosis growth (absorbance);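 0% = vehicle and 100% = reference antibiotic; read after six days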
Starred values were filed as active, the others as inactive; nt = no result given; & = joins results of further samples.

SMILES	PrP UTR inh	Mtb hypoxia inh	Mtb hypoxia inh growth	Sa RN4220 lethal	BJeLR lethal	Autofluor counter	ugtP null kill
CCOC(=O)c1cc2c(=O)n3ccccc3nc2n(CC2CCCO2)c1=NC(=O)/C=C/c1ccccc1 (configuration not stated)	-16	-4	2	0.5	-8	3223	1
COc1ccccc1C(C(=O)NC1CCCCC1)N(C(=O)c1csnn1)C1CC1 (configuration not stated)	-7	0	6	1.2	7	3968	4
CCC(C(=O)O)n1cnc2scc(-c3ccc(C)c(C)c3)c2c1=O (configuration not stated)	3	-5	13	-1.7	-4	3708	-1
COC(=O)c1ccc2c(c1)NC(=O)C(N1CCCC1)S2 (configuration not stated)	-15	8	8	2.4	2	19419*	1
O=C(CN1C(=O)NC2(CCCCC2)C1=O)NNC(=O)C1CC1	-13	0	-1	-1.5	nt	nt	-4
O=C(O)c1cccc(NS(=O)(=O)c2ccc3c(c2)OCCCO3)c1	-9	-10	0	2.3	-3	4190	2
Cc1nn(-c2ccccc2)c(Cl)c1/C=N/Nc1nc2ccccc2n1C	-77	nt	nt	nt	-1	2470	nt
O=C(Cc1ccccc1)NN=Cc1ccc[nH]1	nt	-2	10	2.3	nt	nt	4
O=C(CN1C(=O)C2CCCCC2C1=O)NC1CCCc2ccccc21 (configuration not stated)	-9	-2	-1	-2.7	nt	nt	2
CC(=O)N1CCN(S(=O)(=O)c2cccc(C(=O)Nc3ccccc3N3CCCC3)c2)CC1	1	-15	-17	3.1	0	4894	3
COC(=O)Cn1ncc(N2C3CC(CC(C)(C)C3)C2C)c(Cl)c1=O (configuration not stated)	6	8	6	2.6	-8	2872	3
C=CCN1C(=O)CSC1=NN=Cc1cccc([N+](=O)[O-])c1	nt	0	15	0.0	nt	nt	11
CCCN(CCC)S(=O)(=O)c1ccc(C(=O)Nc2ccc(S(=O)(=O)Nc3nnc(CC)s3)cc2)cc1	-18	0	18	-2.7	4	4070	-5
COc1ccc(C)cc1NC(=O)c1ccccc1N(C)S(=O)(=O)c1ccccc1	-3	-5	9	-0.4	2	3376	2
CCCn1cnc2c(SCc3ccccc3F)nc(N)nc21	-43	15	16	0.6	nt	3759	-7
COC(=O)CN1C(=O)C2C(c3ccc(C)o3)N3C(=O)CN(CCO)C(=O)[C@@]3(Cc3ccccc3)C2C1=O (some centres not stated)	nt	8	20	8.2	nt	nt	6
CCOc1[nH]n(-c2ccc(Cl)cc2)c(=O)c1C=Nc1ccc(OC)cc1	-10	6	6	-1.6	-1	9429	-8
Cc1ccnc2nc(C(=O)OCC(=O)Nc3ccccc3C(C)(C)C)nn12	-7	4	5	2.4	nt	4544	-3
Cc1cc(C)n(C(=O)c2ccccc2[N+](=O)[O-])n1	6	nt	nt	8.1	-4	2046	0
CCCCn1c(=O)[nH]c(=O)c2c1nc(COC(=O)c1c(C)noc1C)n2CCC	-20	18	0	1.5	0	10722	2
Cc1ccc2c(c1)C(c1ccncc1)=NNC(c1ccccc1)=N2	-30	8	8	1.3	3	5045	1
COc1cc(-c2cc(=O)c3c(O)c(OC)c(OC)cc3o2)cc(OC)c1O	-4	nt	nt	5.4	-16	5284	1
CCOc1ccc(CSC(CC(=O)O)C(=O)O)cc1 (configuration not stated)	-10	-14	-14	17	12	2446	17
O=C(CSc1nnc(COc2ccccc2)o1)N1CCN(c2ccccc2)CC1	7	13	11	7.1	-1	10828	-2
COCCN(CCOC)c1cc(C)c(C#N)c2nc3ccccc3n12	-8	nt	nt	0.5	-3	2819	10
Next section:
SMILES	PrP UTR inh	Mtb hypoxia inh	Mtb hypoxia inh growth	Sa RN4220 lethal	BJeLR lethal	Autofluor counter	ugtP null kill
COc1ccc(NC(=S)N(CCCN2CCOCC2)C(C)c2cc3ccccc3o2)cc1 (configuration not stated)	nt	0	8	3.9	21	4462	2
Cn1nccc1C(=O)N1CCN(S(=O)(=O)c2ccc(Br)s2)CC1	8	-4	12	-0.7	1	5497	-6
COc1ccc(CNC(=O)CNS(=O)(=O)c2cccc(C#N)c2)cc1OC	-17	2	0	2.8	-1	3302	8
Cc1cc(Oc2cc(NN3CCCCC3)c([N+](=O)[O-])cc2[N+](=O)[O-])c(C(=O)c2ccccc2)cc1Cl	-18	11	-5	6.1	1	3042	-8
CC(=O)c1ccc(S(=O)(=O)N(C)CCCC(=O)NCc2ccc3c(c2)OCO3)cc1	-14	-10	3	-1.3	nt	7493	-2
CCc1ccc(NC(=O)C2(c3ccccc3)CC2(Cl)Cl)cc1 (configuration not stated)	5	17	4	-0.2	0	nt	-6
OC(COc1ccc2ccccc2c1)CN1CCOCC1 (configuration not stated)	-28&-20	7&12	8&15	2.0&-1.2	10	4078&4330	0&-1
COc1cccc(NC(=O)CN(C)CC(=O)Nc2ccc(Cl)cc2[N+](=O)[O-])c1	-17	17	10	14	0	4483	8
Nc1nnc(SCc2nnc(-c3ccccc3)o2)s1	-7	10	0	1.2	-7	2531	2
Cc1cc(C)nc(N2CCN(c3ncnc4c3cnn4Cc3ccc(Cl)cc3Cl)CC2)n1	nt	4	1	-3.6	3	nt	-22
CC(C)c1ccc(NC2CCCN(C(=O)CCc3cn[nH]c3)C2)cc1 (configuration not stated)	-10	14	12	2.5	-3	5214	8
O=C(CN1CCN(c2ccccc2F)CC1)c1c[nH]c2ccccc12	4	nt	nt	2.9	3	4778	-8
N/C(Cc1ccc([N+](=O)[O-])cc1)=N\OC(=O)c1ccc(Br)cc1	-21	nt	nt	nt	-4	9228	nt
Cc1ccc(C(=O)Nc2ccccc2Sc2ccccc2)cc1	-8	5	8	4.1	2	1990	4
Cc1nc2c(Br)c(C)nn2c2c1CCC2	-6	10	7	2.4	3	4076	0
Cn1cnc2c(NN=Cc3cccs3)ncnc21	nt	-9	10	-4.2	nt	nt	-5
CC(C)n1nnnc1C(c1ccc(F)cc1)N1CCN(C2CCCC2)CC1 (configuration not stated)	-15	nt	nt	3.5	6	4621	-2
Cc1ccc2[nH]c(C(=O)N/N=C/c3ccc([N+](=O)[O-])cc3)c(C)c2c1	-23	nt	nt	nt	7	2982	nt
CC1CN(C(C)CO)C(=O)c2cc(NC(=O)c3ccncc3)ccc2OC1CN(C)S(=O)(=O)c1ccc(F)cc1 (configuration not stated)	nt	11	7	3.8	nt	nt	2
CS(=O)(=O)c1ccccc1C(=O)Nc1nc2ccccc2[nH]1	-30	2	4	2.8	-16	4301	5
CCOc1ccc(/C(O)=C2\C(=O)C(=O)N(c3cc(C)on3)C2c2ccccc2OC)cc1 (configuration not stated)	-15	nt	nt	0.1	5	4863	-5
COc1ccccc1C(=O)COC(=O)c1ccccc1O	-21	0	4	2.7	2	4184	2
CCCCCCCN1CCC(=O)N(CCO)CC1	-20	7	5	-12	-16	3489	-6
COc1cnn(-c2ccc(F)cc2)c(=O)c1Br	-53	10	6	1.7	4	4407	5
Cn1cc(C(=O)O)c(-c2ccc3c(c2)OCCCO3)n1	-13	9	-5	0.7	0	3540	2

In the list so far, four have a COOH group.
SMILES	PrP UTR inh	Mtb hypoxia inh	Mtb hypoxia inh growth	Sa RN4220 lethal	BJeLR lethal	Autofluor counter	ugtP null kill
CCC(C(=O)O)n1cnc2scc(-c3ccc(C)c(C)c3)c2c1=O (configuration not stated)	3	-5	13	-1.7	-4	3708	-1
O=C(O)c1cccc(NS(=O)(=O)c2ccc3c(c2)OCCCO3)c1	-9	-10	0	2.3	-3	4190	2
CCOc1ccc(CSC(CC(=O)O)C(=O)O)cc1 (configuration not stated)	-10	-14	-14	17	12	2446	17
Cn1cc(C(=O)O)c(-c2ccc3c(c2)OCCCO3)n1	-13	9	-5	0.7	0	3540	2

Next part.
SMILES	PrP UTR inh	Mtb hypoxia inh	Mtb hypoxia inh growth	Sa RN4220 lethal	BJeLR lethal	Autofluor counter	ugtP null kill
CN(C)S(=O)(=O)c1cccc(NC(=O)COC(=O)c2cc3ccccc3oc2=O)c1	-75	6	-7	3.0	-8	5894	2
COc1ccc(C(=O)N2CCN(CC(=O)N3CCOCC3)CC2)cc1	-15	8	4	9.8	-3	5992	-2
O=C(NC1CC1)C1CCN(C2CCN(C(=O)c3c(F)cccc3Cl)CC2)CC1	-21	1	10	-1.8	2	6016	-5
COc1ccc(OC)c(CNC(=O)CCc2nc(-c3cccs3)no2)c1	-10	3	3	2.5	-5	5975	3
Cc1ccc(S(=O)(=O)N2CCOC2CNC(=O)C(=O)NCCCN2CCOCC2)cc1 (configuration not stated)	10	5	2	2.5	-2	4435	8
COc1ccc(CCNC(=O)c2n[nH]c3ccccc23)cc1	-37	1	6	9.6	-2	4451	-2
Cc1cc(OCC(=O)NCc2ccccn2)cc(C)c1Br	-28	2	3	6.1	7	8271	7
Cc1sc2ncn(CC(=O)NCC(=O)N(C)C3CCCCC3)c(=O)c2c1C	-4	9	6	7.8	-23	22154*	5
O=C(NCCCN1CCCCC1)c1ccc2c(c1)NC(=O)C(N1CCOCC1)S2 (configuration not stated)	-10	3	5	0.9	9	20369*	9
COc1ccccc1N(CC(=O)NC1CCCC1)C(=O)c1oc(C(C)(C)C)cc1C	-10	9	6	4.5	2	4396	1
NS(=O)(=O)c1ccc(CCNS(=O)(=O)c2ccc(Cl)s2)cc1	0	19	33	4.3	nt	3421	7
O=c1ccn(Cc2ccccc2)c2ccccc12	-18	1	0	2.2	2	4014	-5
O=c1c2cc(Cl)ccc2[nH]c(=S)n1Cc1ccco1	-1	11	10	-1.4	11	11087	-7
O=C(CNc1cccc2ccccc12)NN=C/C=C/c1ccco1	nt	8	12	0.5	nt	nt	-2
CCOc1cccc(=O)c2c(C)n(CC(=O)c3ccccc3)c(C)c12	-7	12	6	-6.4	nt	4679	4
Cn1nccc1/C=N\NC(=O)c1ccc(Cl)cc1	0	nt	nt	nt	-1	5903	nt
O=C(NCc1ccco1)c1cccc(S(=O)(=O)N2CCCCC2)c1	4	nt	nt	2.3	nt	4534	-5
Cc1ccc(Nc2ncnc(-n3cccc3)n2)cc1Cl	-58	10	5	-4.3	-4	4586	-2
CCC(=O)Nc1ccc2nc3c(=O)[nH]c(=S)[nH]c3nc2c1	-8	3	12	-0.1	-1	4077	9
CC(NC(=O)C(=O)NCCc1c[nH]c2ccccc12)c1ccccc1 (configuration not stated)	-24	-3	1	4.5	-4	3815	-1
COc1cccc(C2c3[nH]c4ccccc4c3C[C@H]3C(=O)N(c4ccccc4C(=O)N4CCC[C@H]4C(=O)O)C(=O)N23)c1 (some centres not stated)	-9	nt	nt	2.6	-3	6451	5
COc1ccc(OC)c(NC(=O)/C=C/c2ccccc2[N+](=O)[O-])c1	-8	7	5	21	-16	1941	-6
CCOC(=O)c1ccc(Nc2nc(-c3cccnc3)nc3ccccc23)cc1	0	nt	nt	0.0	-2	5569	10
CC(=O)OC1CC2CCC3C(CCC4(C)C3CC([N+]3(C)CCCCC3)C4OC(C)=O)C2(C)CC1[N+]1(C)CCCCC1 (configuration not stated)	nt	-9	-4	9.8	nt	nt	6
COCc1ccccc1Cn1cnc2c1c(=O)n(C)c(=O)n2C	-6	-3	-6	-13	6	2487	-1
Later entries
SMILES	PrP UTR inh	Mtb hypoxia inh	Mtb hypoxia inh growth	Sa RN4220 lethal	BJeLR lethal	Autofluor counter	ugtP null kill
COC(=O)C1=C(C)N(c2ccccc2)C(=S)NC1c1ccccc1C(F)(F)F (configuration not stated)	-18	1	6	0.7	1	4309	49
COc1cc(C(=O)Nc2ccc(C(C)=O)cc2)c(Br)c(OC)c1OC	-20	-7	17	-1.7	-20	2465	1
CCCn1c(-c2cccc(F)c2)nc2c1c(=O)[nH]c(=O)n2Cc1ccccc1	-15	2	-1	6.1	-6	3842	8
CCc1ccc(NC(=O)Cn2c(=O)n(CCCC(=O)NCc3ccco3)c(=O)c3ccccc32)cc1	-14	nt	nt	1.9	4	2381	-3
O=C(NN=Cc1cc(Br)cs1)C(O)c1ccccc1 (configuration not stated)	nt	1	-2	2.0	nt	nt	5
CC1(C)Cc2c(cnn2-c2ccc(F)cc2)C(NC(=O)CCN2CCCCC2=O)C1 (configuration not stated)	5	2	7	1.1	-6	6797	-1
CCOC(=O)c1ccc(NCC(O)COc2ccccc2)cc1 (configuration not stated)	-14	nt	nt	-5.3	8	2681	-9
COc1ccc(C2C(C(=O)c3ccco3)=C(O)C(=O)N2CCc2ccccc2)cc1OC (configuration not stated)	-8	5	4	7.8	nt	3344	11
O=C(NN1C(=O)c2ccc3c4c(ccc(c24)C1=O)CC3)c1ccc(Br)cc1	-10	3	-7	4.8	-4	3272	11

This is a random part of the collection. Share with any hit: about 3.9%.
